Compound activity: PubChem, National Center for Advancing Translational Sciences (NCATS)
gsp antag: antagonizes gsp, the McCune-Albright syndrome mutation; gsp-mutant cells, cAMP HTRF, 30 min; control for the full effect not named in the record; AID 624288; Potency, µM (doses to about 76.9 µM), without a hit: at the top dose activity change, negative = inhibition, most hits filed as inhibitors; hit rate 0.4% among 340,000; active = falling curve of any shape with a large fitted effect; inconclusive = falling curve, mostly with a smaller effect; inactive = flat or rising curve; cell line not stated here;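 further: intracellular cAMP measured with PDE inhibitor Ro 20-1724 present during compound exposure; potency means the concentration at half of the fitted maximal effect; on the % scale 0 is the no-effect control and ±100 the full control effect; nearly all actives have a fitted effect of over 65% in size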
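Cells in G418 medium, seeded 16-24 h, 37C; buffer exchange to DPBS + 1 mM CaCl2, 0.5 mM MgCl2, 0.05% BSA; cpds in DMSO + […] (300 uM stock), 30 min 37C; HTRF cAMP detection.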
gsp agonist: gsp mutant agonism; hit rate 0.13% among 340,000; Potency, µM (highest dose often 76.9 µM), inactives show at the highest dose activation (cAMP increase), actives largely listed as activators; gsp mutant cells, cAMP HTRF, 30 min; control for the full effect not named in the record; active = well fitted activation curve with a large enough effect; inconclusive = small, poorly fitted or top-dose-only effect, or another doubt; inactive = no such curve, though single readings can be large or run the other way; cell line not stated here;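 further: phosphodiesterase inhibitor Ro 20-1724 added with compounds to block cAMP breakdown; potency means the concentration at half of the fitted maximal effect; nearly all actives have a fitted effect of over 60% in size; about a fifth of the inactives were tested at one dose only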
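Cells in DMEM/10% FBS with G418 were pretreated with compounds in DMSO plus […] (300 uM stock) for 30 min at 37C. cAMP was measured by HTRF (cAMP-d2 plus anti-cAMP antibody-K) after 30 min at room temperature.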
TRPML1 inh: blocks the human TRPML1 channel; Q9GZU1; TRPML1-inducible cells, Ca2+ dye fluorescence, FDSS; stronger effect = lower value; inhibition of EC80 agonist-evoked calcium signal; activity change, negative = inhibition, % (test concentration not listed); hit rate 0.02% among 390,000; AID 624415; in the data active means activity change below about -50%; inconclusive means about -30% to -50%; inactive means above about -30%;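 further: stimulus is agonist 54-4 at its EC80 concentration; on the % scale 0 is the no-effect control and ±100 the full control effect; compound concentration not given in the record; the text of the record puts the active cut at -80%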
Target sequence (Q9GZU1 whole entry, looked up): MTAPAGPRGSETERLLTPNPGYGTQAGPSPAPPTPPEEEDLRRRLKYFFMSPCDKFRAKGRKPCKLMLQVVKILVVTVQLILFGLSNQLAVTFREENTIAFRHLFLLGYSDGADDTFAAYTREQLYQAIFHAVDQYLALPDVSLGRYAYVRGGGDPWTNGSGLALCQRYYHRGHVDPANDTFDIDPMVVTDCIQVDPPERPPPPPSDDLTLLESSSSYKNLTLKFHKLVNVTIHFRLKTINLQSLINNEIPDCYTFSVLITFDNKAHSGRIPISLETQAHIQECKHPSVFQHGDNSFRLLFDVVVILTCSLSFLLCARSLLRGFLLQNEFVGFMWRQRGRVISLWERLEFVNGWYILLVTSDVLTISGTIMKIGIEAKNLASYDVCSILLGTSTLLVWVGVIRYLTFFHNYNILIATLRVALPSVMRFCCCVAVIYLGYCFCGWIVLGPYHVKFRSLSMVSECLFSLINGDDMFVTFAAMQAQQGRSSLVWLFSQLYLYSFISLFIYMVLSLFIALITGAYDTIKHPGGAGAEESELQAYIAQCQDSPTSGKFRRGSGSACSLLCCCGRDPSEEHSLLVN
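TRPML1-DL cells, Tet-induced overnight (~16 h, 37 °C) at 1,500 cells/well, were loaded with Ca8 no-wash dye plus quencher for 45-90 min at room temperature. Compounds were pinned during FDSS kinetic reading; agonist 54-4 at EC80 (4 uM final) then added.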
TRPML1 ag: agonists of human TRPML1 channel; hit rate 0.12% among 410,000; AID 624414; activation, % (concentration not given with the values); TRPML1-expressing cells, Ca2+ dye fluorescence, FDSS; host cell line not named in the record; reference of the full effect not given here; Q9GZU1; in the data active = activation above about 50%; inconclusive = about 30% to 50%; inactive = below about 30%; further: 0% is about no effect; the text of the record puts the active cut at 80%
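Tet-induced TRPML1-DL cells, 1,500 per well, cultured overnight, were loaded with a no-wash Ca2+ dye for 45–90 min. Calcium fluorescence was recorded on the FDSS for 110 s after compound addition, before the EC80 agonist (4 uM 54-4) was added.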
Menin-MLL FL inh: inhibitors of human menin-MLL interaction, wild-type MLL peptide | AID 1766 | Fluorescence polarization, fluorescein-MLL peptide displacement from menin | 290,000 tested, under 10 active | FP activity change, % at 61.4 µM; inconclusive = falling polarisation curve, or a change in total fluorescence; inactive = total fluorescence flat and polarisation flat or rising; no compound was filed as active; the % refers to the polarisation; negative = inhibition;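 further: % of control where 0% means no effect; inhibitors lower the polarisation; unlabelled MLL peptide was the positive control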
ClpP mod: qHTS Assay for Activators of ClpP | ATP-dependent Clp protease proteolytic subunit (Bacillus subtilis (strain 168)), P80244 | purified B. subtilis ClpP, FRET peptide cleavage, 20 min | Potency, µM (titrated, usually from 57.5 µM), inactives show top-dose activity change, negative = active | hit rate 1.9% among 340,000; active = well fitted falling curve with a large enough effect; inconclusive = small, poorly fitted or top-dose-only effect; inactive = no such curve, though single readings can be large or run the other way; further: potency means the concentration at half of the fitted maximal effect; the source files actives as falling curves though it sought activators and does not explain the sign; nearly all actives have a fitted effect of over 65% in size; many hits overshoot -100%
Target sequence (P80244 whole entry, looked up): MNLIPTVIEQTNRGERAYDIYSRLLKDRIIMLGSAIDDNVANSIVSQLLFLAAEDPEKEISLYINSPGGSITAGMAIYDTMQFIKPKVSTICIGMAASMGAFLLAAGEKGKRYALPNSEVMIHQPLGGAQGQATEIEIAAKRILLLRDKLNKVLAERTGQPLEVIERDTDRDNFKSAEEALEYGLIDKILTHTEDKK
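ClpP 10 microg/mL final, pH 8 Tris/KCl buffer with BSA, glycerol, Tween-20; compound pinned in; FRET-FV substrate; RT 20 min; Ex320/Em430; ΔFRET vs ADEP 5.8 microM, DMSO, no enzyme.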
An asterisk follows results filed as active; u = inconclusive; x = not tested or not shown; [ ] = another dose, or the depositor's remark. Compounds were not picked by outcome; any-hit rate near 2.1%.

Value order – gsp antag	gsp agonist	TRPML1 inh	TRPML1 ag	Menin-MLL FL inh	ClpP mod
1	COc1ccccc1N1CCN(c2ccc(-c3nc(-c4ccccc4C)no3)cc2[N+](=O)[O-])CC1
 : x	x	0	-0.7	x	0.4%
2	COC(=O)c1ccc(C)c(NC(=O)C2CC(=O)N(C3CCCC(C)C3C)C2)c1 (stereo not drawn)
 : -6%	-36%[inhibitor]	1	1.4	x	0.3%
3	Cc1sc(N)nc1-c1ccc(Oc2ccccc2)cc1
 : -4%	-24%	15	1.3	3.2	0.6%
4	COc1cc(Br)ccc1NC(=O)c1ccccc1-c1ccccc1C(=O)O
 : -17%	-14%	-18	0.0	x	x
5	O=C(O)C/C(=C\c1cc(Br)cs1)c1nc2ccccc2o1
 : -8%	-4%	29	-0.2	u	x
6	CCN1CCN(CCCNC(=O)CNC(=O)c2nn(-c3ccc(OC)cc3)c(=O)c3ccccc23)CC1
 : 11%	-9%[15.4 µM]	11	0.3	-3.3	x
7	CC1(C(=O)Nc2ccc3c(c2)OCCO3)CCC(=O)N1CC(F)(F)F (stereo not drawn)
 : x	x	-3	0.0	x	1.8%
8	CC(C)CCN1CCN(Cc2cccn2-c2nccs2)CC1CCO (stereo not drawn)
 : -10%	-34%[inhibitor]	8	1.1	-1.5	-0.9%
9	COc1ccc(CN(Cc2cc3cc(OC)c(OC)cc3[nH]c2=O)C(=O)NC2CCCCC2)cc1
 : 4%	-6%	-3	-1.3	3.1	-28%
10	CC(=O)N1CCN=C1SCc1ccccc1F
 : 10%	-4%	-4	-0.2	-3.5	-0.3%
11	CCc1ccc(Cc2cnc(NC(=O)C3=NCCN3)s2)cc1
 : -5%	9%[15.4 µM]	7	0.0	-1.0	x
12	O=C(NN=Cc1cc(Br)c(O)c(Br)c1)c1ccccc1NS(=O)(=O)c1cccs1
 : -22%	u	10	2.2	x	u
13	S=C(NC1CCCCC1)N1CCc2[nH]c3ccccc3c2C1
 : -10%	5%[15.4 µM]	-1	-0.6	0.2	-0.6%
14	O=C(NN=C1CCCC1)c1cccc(O)c1
 : 6%	-2%	-2	-0.2	-0.3	-2.2%
15	CCS(=O)(=O)N1CCN(Cc2nc3ccccc3c(=O)[nH]2)CC1
 : 5%	1%	5	0.2	0.9	1.5%
16	COc1ccc(-n2nc(C(=O)NCC(=O)NCCc3ccc(OC)c(OC)c3)c3ccccc3c2=O)cc1
 : -57%	19%[15.4 µM]	50	-0.3	7.4	x
17	COc1cc(OC)cc(-c2cc3nc(C)c(CCC(=O)O)c(C)n3n2)c1
 : -13%	u	9	-0.2	1.1	4.8%
18	CNC(=O)CN(Cc1ccccc1)S(=O)(=O)c1ccc(Cl)cc1
 : -2%	4%	-12	0.2	-2.3	-0.6%
19	COc1ccc(CCNC(=O)c2ccc3c(c2)CCN3S(=O)(=O)c2ccccc2)cc1OC
 : x	x	12	4.3	x	1.7%
20	C#Cc1ccc([C@@H]2C=C(C(=O)NC3CC3)O[C@H](OCc3ccc(CO)cc3)C2)cc1
 : -1%	u	-3	-0.5	x	-5.4%
21	COc1ccc(CNCc2ccc(C(=O)O)s2)cc1
 : x	x	-10	-0.4	x	1.9%
22	O=C(COC(=O)C1CCN(S(=O)(=O)c2cccs2)CC1)Nc1ccccc1Br
 : -16%	u	-1	0.9	4.3	x
23	COc1ccc(CC(=O)O/N=C(\N)Cc2cccc3ccccc23)cc1
 : -7%	-68%[inhibitor]	5	1.7	u	-2.7%
24	Cc1ccc(C(=O)NNC(=O)c2ccc(C)cc2)cc1
 : -6%	-1%[15.4 µM]	4	7.7	-2.8	x
25	Nc1nc2ccccc2n1/N=C/c1cccnc1
 : 4%	11%[15.4 µM]	40	0.5	x	0.3%
26	CCn1cc(CN2CCC(n3nccc3NC(=O)CCCc3ccccc3)CC2)c(C)n1
 : -6%	0%	7	1.1	-0.1	2.2%
27	O=C(O)c1ccccc1C(=O)Nc1ccc(S(=O)(=O)N2CCCC2)cc1
 : 1%	-4%	-4	1.1	-6.3	x
28	CC(=O)N1c2ccccc2C(=O)C1N1CCN(c2ccc(F)cc2)CC1 (stereo not drawn)
 : x	x	3	1.7	x	-2.0%
29	CCCSCCCNC(=O)CC1Oc2ccccc2NC1=O (stereo not drawn)
 : 9%	-9%	-14	-0.1	2.9	1.0%
30	COc1ccc(-c2sc3cc(OC)c(OC)cc3c2C#CC2(O)CCCCC2)cc1
 : -12%	x	66	0.8	x	3.6%
31	COc1ccccc1CN(C)C(=O)c1ccc(S(=O)(=O)NCc2ccco2)cc1
 : -8%	-16%	-6	-0.5	x	-0.5%
32	NC(=O)c1ccsc1NC(=O)c1nc(-c2ccccc2)n(-c2ccccc2)n1
 : -3%	20%	22	1.5	12	3.0%
33	O=C1C(=C(I)I)c2ccccc2-c2ccccc21
 : u	-43%[inhibitor]	-4	0.4	x	-7.4%
34	COC(=O)c1ccc(C(=O)OC)c(NC(=O)/C=C/C(=O)O)c1
 : -2%	19%[15.4 µM]	-9	-0.7	4.9	x
35	CCc1noc(C)c1C(=O)N1CCCC(C(=O)c2cc(F)ccc2F)C1 (stereo not drawn)
 : 3%	6%[15.4 µM]	8	-0.1	-4.8	x
36	COc1ccc(NC(=O)C(CC(=O)O)Cc2ccc(Cl)cc2)cc1 (stereo not drawn)
 : 7%	-14%	6	-0.4	1.2	0.3%
37	O=C(NNc1ncnc2c1cnn2-c1ccccc1)c1cccs1
 : -19%	-3%[15.4 µM]	6	-1.0	4.3	x
38	COc1cc(/C=C/C(=O)O)cc(S(=O)(=O)Nc2ccccc2C(=O)NCCc2ccccc2)c1OC
 : 2%	8%	0	-0.3	3.2	x
39	Cn1c([N+](=O)[O-])cnc1N1CCN(c2nncs2)C1=O
 : 5%	10µM*	-7	-0.4	1.2	-0.7%
40	COc1ccc(-n2c(=O)c(CCC(=O)N3CCC(C)CC3)nc3ccccc32)cc1
 : -10%	8%	-9	-0.6	x	-1.2%
41	O=C(CN(CC1CCCO1)C(=O)CCC(=O)Nc1ccccn1)NCC1CCCO1 (stereo not drawn)
 : 0%	13%	6	-0.4	-0.5	-2.9%
42	CCOC(=O)c1c(C)c(C(=O)NC2CCCCC2)c(C)n1CC
 : 6%	16%	-6	0.3	1.1	0.1%
43	CC(=O)Cn1nnc2sc3c(c2c1=O)CCC(C(C)(C)C)C3 (stereo not drawn)
 : -27%	13%[15.4 µM]	0	-0.6	-3.3	x
44	COc1ccc(N=Nc2nc3ccc(Br)cc3n2C)cc1
 : -30%	-1%	-6	54*	-12	1.2%
45	COc1ccccc1NC(=O)CCNS(=O)(=O)c1ccc2c(c1)CCCC(=O)N2
 : x	x	-14	0.8	x	-1.3%
46	CC(NC(=O)c1cc2ccccc2oc1=O)c1ccccc1 (stereo not drawn)
 : -4%	-43%[inhibitor]	30	1.5	2.1	x
47	Cc1nc2cc(C(=O)N3CCN(C)CC3)ccc2n1C
 : 2%	-13%	-1	0.1	-0.4	-2.0%
48	CCN(CC)CCN(C(=O)C1=COCCO1)c1nc2ccc(C)cc2s1
 : -7%	64%	-7	0.5	x	-2.4%
49	CCc1cccc(C)c1NC(=S)NCc1cccn1C
 : 5%	4%	26	1.3	0.8	1.6%
50	O=C(NCc1ccccc1)c1cc(S(=O)(=O)N2CCCCC2)ccc1N1CCOCC1
 : 6%	0%	-20	0.3	0.0	0.0%
51	COc1ccccc1N1CCN(C(=O)CSc2nnnn2C2CC2)CC1
 : -6%	4%	-10	-0.8	x	0.4%
52	Cc1cc(-c2ccccc2)n(-c2ccc(C(=O)NC(C)C)cc2)n1
 : -8%	-4%	-13	0.3	4.9	u
53	CCCCc1ccc(NC(=O)CSc2nnc3[nH]c(=O)cc(C)n23)cc1
 : x	x	4	1.1	x	-3.9%
54	CC(C)c1nnc(SCC(=O)NCCC2=CCCCC2)n1N
 : -2%	1%	-8	2.3	0.7	0.5%
55	CCc1cccc(NS(=O)(=O)c2cc(-c3cnc(C)o3)ccc2OC)c1
 : x	x	3	-1.0	x	-2.7%
56	O=C(NCCCN1CCc2ccccc2C1)C1CCN(S(=O)(=O)N2CCC3(CC2)OCCO3)CC1
 : -1%	11%	1	-0.3	0.1	-3.6%
57	N#Cc1ccc(C(=O)OCC(=O)Nc2cccc(S(=O)(=O)N3CCCCC3)c2)cc1
 : 17%	1%	32	4.2	x	-0.7%
58	Cc1ccc(C(C)C)c(OCC(=O)Nc2ccc3c(c2)nc(CCN2CCCCC2)n3C)c1
 : 4%	u	-2	0.3	4.1	-2.2%
59	Cc1cc(C)cc(Nc2cc(C(=O)NCCCN(C)C3CCCCC3)c3ccccc3n2)c1
 : x	x	27	-0.3	x	-2.8%
60	CC1CCCCN1C(=O)CSc1nc2ccccc2nc1Cc1ccc(Cl)cc1 (stereo not drawn)
 : x	x	48	1.5	x	-21%

More structures.
Value order – gsp antag	gsp agonist	TRPML1 inh	TRPML1 ag	Menin-MLL FL inh	ClpP mod
61	O=C(Nc1cc(F)ccc1F)C1CCCO1 (stereo not drawn)
 : 1%	15%	3	-0.5	2.2	-0.4%
62	CCOC(=O)c1cccc(Nc2nc(-c3cccnc3)nc3ccccc23)c1
 : 3%	-17%	8	1.9	8.3	-9.0%
63	CC(=O)Nc1ccc(S(=O)(=O)NC2=C(N3CCN(C)CC3)C(=O)c3ccccc3C2=O)cc1
 : 4%	-6%	8	0.5	3.6	1.4%
64	COc1cccc(NS(=O)(=O)c2ccc3c(c2)CCN3C(C)=O)c1
 : -14%	-4%[15.4 µM]	11	-1.3	0.4	-0.6%
65	O=C(NCc1ccco1)c1cc(-c2ccccc2)on1
 : -9%	-1%	-9	1.5	-0.4	0.2%
66	Cc1nnc(SCC(=O)Nc2c(C)n(C)n(-c3ccccc3)c2=O)n1Cc1ccccc1
 : 15%	0%[15.4 µM]	48	-0.5	2.3	x
67	Cc1ccc(NC(=O)Cn2nc(C(F)(F)F)c3c2CCCC3)cc1
 : x	x	-14	4.2	x	-0.9%
68	CCN(CC)c1ccc(NS(=O)(=O)c2ccc3c(c2)oc(=O)n3C)c(C)c1
 : u	-95%[inhibitor]	18	1.0	3.2	1.0%
69	Cc1cc(/C=C2/SC(=O)N(CC(=O)N3CCCC3)C2=O)c(C)n1C
 : -41%	13%[15.4 µM]	-7	0.5	x	x
70	COc1ccc(N(CC(=O)Nc2cccc(C(C)=O)c2)S(=O)(=O)c2ccc(NC(C)=O)cc2)cc1
 : -16%	-8%	-1	-0.3	3.7	0.9%
71	CSc1ncccc1C(=O)OCC(=O)Nc1cc(C(F)(F)F)ccc1N1CCOCC1
 : -4%	-31%[inhibitor]	7	0.9	0.2	-0.7%
72	O=C(c1cccc(-c2cncc3nccn23)c1)N1CCOCC1
 : x	x	6	-0.2	x	4.4%
